Screening data: PubChem, Southern Research Specialized Biocontainment Screening Center
Mtb betalactam: beta-lactam sensitization of Mtb H37Rv, H37Rv | inhibition, % at 25 µM | M. tuberculosis H37Rv growth with meropenem, percent inhibition; hits of this screen are not shown here | AID 434955, 2010 | 330,000 tested, 0.27% active;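 active = about 74% or more and at least 40 points above the plate without the antibiotic, then above 30% in a dose series; inconclusive = first-round hits that could not be retested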;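 note: growth measured after seven days incubation then overnight dye step; 0% = bacteria only wells and 100% = bacteria with antibiotic; twin plates without the antibiotic show which effects depend on it; some results filed as inactive read as strong as hits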
An asterisk follows results filed as active; u = inconclusive. A portion of the library; rates above refer to the full screens.

SMILES	Mtb betalactam
COc1ccc(S(N)(=O)=O)cc1C(=O)OCC(=O)N1CCCC(C)C1 (stereo not drawn)	-5
CCCCN(C(=O)CC1CCCC1)c1c(N)n(CCC)c(=O)[nH]c1=O	4
COc1ccccc1NC(=O)C(C)OC(=O)CSCC(=O)Nc1ccc(C)cc1C (stereo not drawn)	-5
COc1ccccc1OCCNC(=O)c1cccc(S(=O)(=O)NCc2ccccc2)c1	0
CCOC(=O)C1CCCN(C(=O)c2cc(S(=O)(=O)N3CCCCCC3)ccc2OC)C1 (stereo not drawn)	-5
COc1ccc(NC(=O)N(C)C[C@H]2Oc3ccc(NC(=O)CCC(F)(F)F)cc3C(=O)N([C@H](C)CO)C[C@@H]2C)cc1	-1
Cc1ccc(S(=O)(=O)N2CCOCC2)cc1C(=O)OCC(=O)c1c(N)n(C)c(=O)n(C)c1=O	-8
CC(=O)c1ccc(S(=O)(=O)Nc2ccc(Cl)c(S(=O)(=O)N3CCCC3)c2)cc1	-6
Nc1nonc1-n1nnc(C(=O)N/N=C\c2cccc(Cl)c2)c1CN1CCOCC1	-4
CC(C)(C)OC(=O)N[C@@H](C(=O)OC(C)(C)C)c1ccc(C(F)(F)F)cc1	9
CCOc1ccc(S(=O)(=O)N2CCC(C(=O)NCC(=O)Nc3cccc(Cl)c3C)CC2)cc1	16
NC(=O)c1ccc(NC(=O)COC(=O)CCN=C2NS(=O)(=O)c3ccccc32)cc1	-9
COCCn1c(SCC(=O)Nc2c(C)n(C)n(-c3ccccc3)c2=O)nc2ccccc2c1=O	-2
COc1ccc(S(=O)(=O)N2CCOCC2)cc1NC(=O)Cc1cccs1	3
CCC[C@@H]1Cc2ccccc2N1C(C)=O	-2

4 entries from above, as labelled records:
> CCCCN(C(=O)CC1CCCC1)c1c(N)n(CCC)c(=O)[nH]c1=O
  Mtb betalactam: 4
> COc1ccccc1NC(=O)C(C)OC(=O)CSCC(=O)Nc1ccc(C)cc1C (stereo not drawn)
  Mtb betalactam: -5
> COc1ccccc1OCCNC(=O)c1cccc(S(=O)(=O)NCc2ccccc2)c1
  Mtb betalactam: 0
> CCOC(=O)C1CCCN(C(=O)c2cc(S(=O)(=O)N3CCCCCC3)ccc2OC)C1 (stereo not drawn)
  Mtb betalactam: -5

Following part:
SMILES	Mtb betalactam
COc1ccc(CC(=O)NCc2ccc(F)cc2)cc1S(=O)(=O)N1CCOCC1	-9
COC(=O)C1=C(c2cccc(OCc3ccccc3)c2)C[C@@H]2CC[C@H]1N2C(=O)NCc1ccc(Br)cc1	2
COc1ccc(-c2ccc3c(c2)S(=O)(=O)c2cccc(C(=O)NC[C@@H]4CCCO4)c2C3=O)cc1OC	3
COc1ccc(NC(=O)CN(C)C(=O)c2ccc3ccccc3n2)cc1	1
COC(=O)c1ccc(COC(=O)CNC(=O)c2ccc(C)s2)cc1	-2
CCC(CO)Oc1cc(NCc2ccccc2)c2ncn(C(C)C)c2c1 (stereo not drawn)	-6
COc1ccc(CCN2CC(C(=O)N(C)Cc3cccnc3)CC2=O)cc1OC (stereo not drawn)	-6
Cc1cc(C)n(-c2ccc(C(=O)N3CCN(S(=O)(=O)c4ccc(Cl)cc4)CC3)cc2)n1	-2
CC(C)NC(=O)Nc1ccc2c(c1)C(=O)N([C@H](C)CO)C[C@H](C)[C@@H](CN(C)S(=O)(=O)c1ccccc1)O2	11
C=CC[C@@H](CC(=O)N(CCO)Cc1ccccc1)C(=O)NCCOC(=O)[C@@H](CC=C)Cc1ccc(F)cc1	-6
Cc1nc(C)c(C(=O)OCC(=O)NCc2ccccc2)s1	4
CC(=O)Nc1ccc(S(=O)(=O)N[C@@H](C)C(=O)NC2CCCc3ccccc32)cc1 (stereo partly drawn)	-3
CCN(CC)c1ccc(NC(=O)COc2ccc(-n3cnnn3)cc2)cc1	-5
CC1CCN(C(=O)COC(=O)c2cc(=O)[nH]c3ccccc23)CC1	-1
CN(CCOc1ccccc1)C(=O)c1ccc2c(c1)OCO2	-14
COc1cc(OC)cc(-c2oc(=O)c3cc(OC)c(OC)cc3c2C(F)(F)F)c1	2
O=C1c2ccccc2CCc2ccc(Br)cc21	-3
Cc1cc(C)n(CC(=O)NNC(=O)c2cncc(Br)c2)n1	-9
COc1ccccc1CNC(=O)CN1C(=O)N(C)C2(CCCCC2)C1=O	0
CCN(CC(=O)Nc1c(F)cccc1F)C(=O)CNC(=O)c1sc2ccccc2c1Cl	-10
COc1cc(C)c(CN2CCN(S(=O)(=O)c3ccc(Cl)s3)CC2)cc1OC	-6
Cc1cc(C)c2c(CC(=O)N3CCCC3)coc2c1	1
CC(=O)Oc1ccc(-c2ccc(C(=O)OCC(=O)c3c(N)n(C)c(=O)n(C)c3=O)cc2)cc1	6
CN(c1ccccc1)S(=O)(=O)c1cccc(NC(=O)C2=NNC(=O)CC2)c1	0
CN(CC(=O)O)C(=O)c1ccccc1	1
Cc1ccc(S(=O)(=O)/N=C2\C=C(Nc3ccc(O)cc3)C(=O)c3ccccc32)cc1	17
CC(=O)C[C@H](O)CC(=O)[C@H]1OC(=O)CCCCCc2ccccc21	8
Cc1cccc(C)c1NC(=O)CN(C)C(=O)CC1CC2CCC1C2 (stereo not drawn)	2
CSc1nc(N)nc2c1ncn2CC(=O)NCC1CCCO1 (stereo not drawn)	-7
COC(=O)C1=C(c2ccc(-c3ccccc3)c(F)c2)C[C@@H]2CC[C@H]1N2C(=O)N1CCC(C)CC1	2

Reprinted from the listing for reference:
SMILES	Mtb betalactam
CC(=O)C[C@H](O)CC(=O)[C@H]1OC(=O)CCCCCc2ccccc21	8
Cc1cccc(C)c1NC(=O)CN(C)C(=O)CC1CC2CCC1C2 (stereo not drawn)	2

(further entries)
SMILES	Mtb betalactam
CN(CC(=O)Nc1ccccc1Cl)C(=O)COC(=O)/C=C/c1cccc(C(F)(F)F)c1	0
CSCC[C@H](NC(=O)c1cccc(S(=O)(=O)N2CCCCCC2)c1)c1nc2ccccc2[nH]1	-8
Cc1ccc(S(=O)(=O)N2CCCC2)cc1C(=O)Nc1ccc(-n2cnnn2)cc1	-7
O=C(NCCC1=CCCCC1)c1ccc(-n2cncn2)cc1	3
CC(C)C(NCC(=O)Nc1ccccc1C(=O)NC1CC1)c1ccccc1 (stereo not drawn)	-4
CN(C1CCCCC1)S(=O)(=O)c1ccc(=S)[nH]c1	4
CCN1C(=O)[C@H]2[C@@H](c3ccc(-c4ccc5c(c4)OCO5)c(OC)c3)N[C@@](C)(C(=O)OC)[C@H]2C1=O	-1
C#CCOCCOCCOCCNc1nc(N2CCN(C(=O)[C@H](CC(N)=O)n3cc([C@@H](N)CC(N)=O)nn3)CC2)nc(N2CCN(C(=O)[C@H](CC(N)=O)n3cc([C@@H](N)CC(N)=O)nn3)CC2)n1	9
C=CC[C@@H](Cc1ccc(F)cc1)C(=O)OC[C@H]1CCCN1C(=O)[C@@H](CC=C)CC(=O)N(CCO)Cc1ccccc1	2
Cc1noc(C)c1NC(=O)N(C)C[C@H]1Oc2ccc(NC(=O)NC3CCCCC3)cc2C(=O)N([C@H](C)CO)C[C@@H]1C	-1
O=C(Nc1cc([N+](=O)[O-])ccc1C(=O)NCCN1CCOCC1)c1ccccc1	u
COc1cc(S(=O)(=O)N2CCN(C(=O)C3CC3)CC2)ccc1NC(C)=O	-6
CC(C)(C)OC(=O)C[C@H]1C/C=C\C[C@@H](CC(=O)N[C@@H](CO)Cc2ccccc2)C(=O)NCCOC1=O	1
O=C1O[C@@H](c2ccc(O)cc2)Cc2cccc(O)c21	-4
COc1c(Cl)cc(C(=O)NCc2ccco2)cc1Cl	-2
COc1cc(NC(=O)C2CC(c3c(F)cccc3Cl)=NO2)cc(OC)c1OC (stereo not drawn)	-18
CNS(=O)(=O)c1ccc2c(c1)C(=O)c1cc(S(=O)(=O)NC)ccc1CC2	12
CC(NC(=O)COC(=O)C1CC1C)c1cccc(Cl)c1 (stereo not drawn)	4
O=C(COC(=O)/C=C/c1cccc(Cl)c1)Nc1c(F)cccc1F	-3
CCOc1ccc(NC(=O)CN(c2ccc(OC)cc2)S(=O)(=O)c2cccs2)cc1	-1
Cc1ccc(CN(C)CC(=O)Nc2ccccc2C(=O)NC2CC2)o1	-6
COC(=O)C1=C(c2ccc(F)cc2OCc2ccccc2)C[C@@H]2CC[C@H]1N2C(=O)NCc1ccc(OC)c(OC)c1	0
COc1ccc(O)c(-c2nc(N)nc(N)n2)c1	1
O=C(Cc1ccccc1F)Nc1cc(S(=O)(=O)N2CCCC2)ccc1Cl	-2
COC(=O)[C@]1(C)N[C@H](CN(C)S(=O)(=O)c2ccc(OC(F)(F)F)cc2)[C@@H]2C(=O)N(Cc3ccccc3)C(=O)[C@@H]21	4
Cc1ccc(SCC(=O)NNC(=O)CCS(=O)(=O)c2ccc(C)cc2)cc1	2
Cc1ccc(Cl)c(Cn2cnc3c(cnn3C(C)(C)C)c2=O)c1F	15
CC(=O)N1CCN(c2ccc(NCc3cccc(C)c3)cc2)CC1	1
COc1ccc2c3n([n+]([O-])c2c1)CCN=C3c1ccc(Cl)cc1	-3
COc1cccc(CNC(=O)c2cccc(NC(=O)CC3SC(N4CCCCC4)=NC3=O)c2)c1 (stereo not drawn)	2
CN(C)C(=O)c1cccc(-c2csc(N3CCC(C(N)=O)CC3)n2)c1	8
Cc1cc(C)n2nc(C(=O)Nc3cc(S(=O)(=O)N4CCCCC4)ccc3C)nc2n1	-6
O=C(Cn1nc(-c2ccccc2)oc1=O)OCC(=O)c1ccccc1	-5
CC(C)(C)n1ncc2c(=O)n(Cc3cccc(Cn4cnc5c(cnn5C(C)(C)C)c4=O)c3F)cnc21	0
COCC(C)n1c(SCC(=O)Nc2ccc3c(c2)OCCO3)nc2ccccc2c1=O (stereo not drawn)	-13
CCN(C(=O)c1ccc(Cl)c(S(=O)(=O)Nc2c(C)n(C)n(-c3ccccc3)c2=O)c1)c1ccccc1	-9
CC(=O)c1ccccc1NC(=O)COC(=O)c1cc(C)oc1C	-2
CN(C)c1ccc(/C=C/C(=O)c2ccc3c(c2)OCO3)cc1	-1
CN(Cc1ccccc1Br)C(=O)CSc1nnnn1C1CC1	-4
Cc1cc(C)n(CCCNC(=O)c2ccc(C)o2)n1	2
COC(=O)[C@@]12CCCN1[C@H](c1ccc(-c3ccc(C(C)=O)cc3)c(OC)c1)[C@H]1C(=O)N(C)C(=O)[C@H]12	-7
CCN(CC(=O)NC1CCS(=O)(=O)C1)S(=O)(=O)c1ccc(Br)cc1 (stereo not drawn)	3
COc1ccc(C(=O)NC(=O)CSc2nc3nc(C)cc(C)n3n2)cc1	-2
Cc1ccnc2c1ccc1c(C)ccnc12	80
C=CCSc1nnc(NC(=O)c2ccc(N3CCCC3=O)cc2)s1	-11
CC(C)(CNS(=O)(=O)c1ccc2ccccc2c1)N1CCOCC1	-3
CCN(CC(=O)Nc1ccc(OC)cc1)CC(=O)Nc1ccc2c(c1)OCO2	-6
Cc1c(C(=O)N2CCN(S(=O)(=O)c3cccs3)CC2)oc2ccc(F)cc12	5
CCN(CC(=O)Nc1c(F)cccc1F)C(=O)CNC(=O)COc1ccccc1	2
COc1ccc(S(=O)(=O)N(CC(=O)NCc2ccncc2)c2ccc(C)cc2)cc1Br	-3
COc1ccc(-n2c(=S)[nH]c3cc(C(=O)NCCCN4CCOCC4)ccc3c2=O)cc1	3
C[C@H](CO)N1C[C@H](C)[C@@H](CN(C)Cc2ccc3c(c2)OCO3)Oc2ccc(NC(=O)Cn3cnnn3)cc2C1=O	-1
O=C(CNC(=O)c1cccs1)Nc1ccc(N2CCOCC2)cc1	5
CCCCN(C(=O)CSc1nnc(-c2ccco2)o1)c1c(N)n(Cc2ccccc2)c(=O)[nH]c1=O	5
CC1CC(C)CN(C(=O)c2ccc(S(=O)(=O)N3CCCCC3)cc2)C1 (stereo not drawn)	27
COCC(=O)N(C)C[C@H]1N[C@@](Cc2ccccc2)(C(=O)OC)[C@H]2C(=O)N(Cc3ccccc3)C(=O)[C@@H]12	-3
CN1CCN(S(=O)(=O)c2cccc(C(=O)N(C)Cc3cccs3)c2)CC1	-7
CCCCN(C(=O)CSCC(=O)Nc1ccc(C)cc1)c1c(N)n(CC(C)C)c(=O)[nH]c1=O	-6
CC[N+](CC)(CC)CCOc1cccc(OCC[N+](CC)(CC)CC)c1OCC[N+](CC)(CC)CC	2
O=C1CN(S(=O)(=O)c2cccc(Br)c2)CCN1	-5

Other records follow.
SMILES	Mtb betalactam
CC(OC(=O)/C=C/c1ccc2ccccc2n1)C(=O)N(C)c1ccccc1 (stereo not drawn)	-2
CC(C)(C)CC(=O)Nc1nnc(SCC(=O)N2CCCCC2)s1	-2
Cc1c(C(=O)N2CCN(c3ccccc3)CC2)oc2c(Cl)cccc12	0
Cc1ccc(COC(=O)c2cc(S(=O)(=O)N3CCOCC3)ccc2C)cc1	-4
CCCCOC(=O)NS(=O)(=O)c1sc(CC(C)C)cc1-c1ccc(Cn2c(CC)nc3c(C)cc(C)nc32)cc1	79
NC(=O)c1ccc(Cn2c(C(=O)c3ccc(Cl)cc3)c3ccccc3[n+]2[O-])cc1	6
CC1CCN(C(=O)c2ncn(C)c2C(=O)N2CCC(C)CC2)CC1	-5
COc1cccc(CC(=O)OCC(=O)N(C)CC(=O)Nc2ccccc2Cl)c1	-7

Structural class: those above with a CF3 group.
SMILES	Mtb betalactam
COc1ccc(NC(=O)N(C)C[C@H]2Oc3ccc(NC(=O)CCC(F)(F)F)cc3C(=O)N([C@H](C)CO)C[C@@H]2C)cc1	-1
CC(C)(C)OC(=O)N[C@@H](C(=O)OC(C)(C)C)c1ccc(C(F)(F)F)cc1	9
COc1cc(OC)cc(-c2oc(=O)c3cc(OC)c(OC)cc3c2C(F)(F)F)c1	2
CN(CC(=O)Nc1ccccc1Cl)C(=O)COC(=O)/C=C/c1cccc(C(F)(F)F)c1	0
COC(=O)[C@]1(C)N[C@H](CN(C)S(=O)(=O)c2ccc(OC(F)(F)F)cc2)[C@@H]2C(=O)N(Cc3ccccc3)C(=O)[C@@H]21	4
